# PV pol inh – inhibitors of poliovirus RNA polymerase binding and polymerization; P03300; poliovirus polymerase elongation, fluorescence polarization; active compounds read low; % elongation, % (compound at 16.7 µg/mL); actives 0.66% (n = 150,000); AID 588519; in the data active means % elongation below about 90%; further: some results filed as inactive read as strong as hits
# Target sequence (P03300 1749-2209 limits assumed): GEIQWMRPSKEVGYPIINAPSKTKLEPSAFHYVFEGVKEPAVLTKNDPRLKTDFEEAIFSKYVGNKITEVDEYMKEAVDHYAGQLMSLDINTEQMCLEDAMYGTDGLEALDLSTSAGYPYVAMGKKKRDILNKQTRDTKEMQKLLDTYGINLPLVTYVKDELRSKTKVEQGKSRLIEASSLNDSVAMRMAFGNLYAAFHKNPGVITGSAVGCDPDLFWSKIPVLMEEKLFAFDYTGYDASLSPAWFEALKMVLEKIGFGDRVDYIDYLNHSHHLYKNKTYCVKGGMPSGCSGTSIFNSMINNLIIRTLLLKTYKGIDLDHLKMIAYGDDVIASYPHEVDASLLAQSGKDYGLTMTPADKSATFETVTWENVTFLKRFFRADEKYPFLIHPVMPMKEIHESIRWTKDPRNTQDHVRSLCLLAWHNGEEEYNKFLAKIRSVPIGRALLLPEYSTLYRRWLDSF
# PV pol inh intensity – second read-out of PV pol inh, no call of its own (marks repeat the call); % elongation; measured here: total intensity read-out; formula for this scale not given here;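 total fluorescence in place of polarization; lower means less elongation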
# An asterisk follows results filed as active. Some of the compounds tested. The share of hits here may be higher or lower than overall.
SMILES,PV pol inh,PV pol inh intensity
Cn1c(=O)c(=O)n(C)c2cc(NC(=O)c3cccc(F)c3)c(Cl)cc21,101,100
CN(CC(=O)Nc1cccc(C(F)(F)F)c1)S(=O)(=O)c1cccs1,108,107
CCOC(=O)Cn1c(=O)n(C2CCCCC2)c2nc(-c3ccc(OCC)cc3)nc(C(N)=O)c21,100,95
Cc1cccc(NC(=O)CSc2ccc(-c3sc(-c4ccccc4)nc3C)nn2)c1C,104,107
O=C(Nc1ccc(OCc2cc(=O)n3ccsc3n2)cc1)c1ccc(F)cc1,106,109
CCc1ccc(NC(=O)CC2C(=O)N(c3ccc(Cl)cc3)C(=O)N2Cc2ccco2)cc1 (stereo unspecified),109,112
CCc1ccccc1N1C(=O)N(Cc2ccccc2C)c2ccccc2S1(=O)=O,107,103
CCC(Sc1nc(-c2ccc(F)cc2)nc2c1Cc1c(CO)cnc(C)c1O2)C(=O)Nc1ccc(F)cc1 (stereo unspecified),110,111

# (listing goes on)
SMILES,PV pol inh,PV pol inh intensity
O=S(=O)(c1ccccc1)c1nc(-c2ccc(F)cc2)oc1N1CCCCCC1,102,109
COc1cc(S(=O)(=O)NCCc2c(C)[nH]c3ccccc23)c(C)cc1C,104,109
CC1CCCCN1C(=O)CSc1c2c(nc3cc(Cl)ccc13)CCCC2 (stereo unspecified),105,109
CCC1CCCCN1C(=O)c1sc(-n2nc(C)c(Cc3ccccc3)c2C)nc1C (stereo unspecified),100,104
COc1cccc(C(c2c(O)cc(C)n(Cc3ccco3)c2=O)N2CCN(c3ccccc3)CC2)c1 (stereo unspecified),102,106
CCOc1ccc(C(=O)Nc2ccc3oc(-c4ccncc4)nc3c2)cc1,106,110
Cc1ncc(CO)c2c1Oc1nc(-c3ccc(Cl)cc3)nc(SCC(=O)N3CCCCC3)c1C2,103,104
N#Cc1c[nH]n2c(NC3CCCC3)c(-c3cccc(Cl)c3)nc12,115,115

# A second format for part of the listing above.
# Every second line gives: PV pol inh, PV pol inh intensity
COc1cc(S(=O)(=O)NCCc2c(C)[nH]c3ccccc23)c(C)cc1C
 : 104, 109
O=S(=O)(c1ccccc1)c1nc(-c2ccc(F)cc2)oc1N1CCCCCC1
 : 102, 109

# (continued)
SMILES,PV pol inh,PV pol inh intensity
CCOc1cccc(C(=O)N(Cc2ccc(C)o2)C2CCS(=O)(=O)C2)c1 (stereo unspecified),113,113
CCCn1c(=N)c(C(=O)NC(C)c2ccccc2)cc2c(=O)n3ccccc3nc21 (stereo unspecified),109,110
CCC(C(=O)Nc1ccc(C(C)=O)cc1)n1cnc2nc3c(cc2c1=O)CCCC3 (stereo unspecified),111,117
COc1ccccc1NC(=O)C1=C(C)Nc2nc(SCc3ccccc3F)nn2C1c1cccnc1 (stereo unspecified),107,109
CCN(CC)c1cc2c(cc1F)c(=O)c(S(=O)(=O)c1ccc(OC)cc1)cn2Cc1ccccc1,100,97
CCOc1ccccc1NC(=O)c1cnc(N2CCOCC2)c2ccccc12,113,112
CCc1ccc(NC(=O)c2ccc(Cn3nc(N4CCN(c5ccccc5)CC4)ccc3=O)o2)cc1,108,111
COc1ccc(Cn2c(SCc3ccc(C(=O)NC4CCCCC4)cc3)nc3ccncc32)cc1,103,106

# Gathered by group: those above containing a Cl atom.
SMILES,PV pol inh,PV pol inh intensity
Cn1c(=O)c(=O)n(C)c2cc(NC(=O)c3cccc(F)c3)c(Cl)cc21,101,100
CCc1ccc(NC(=O)CC2C(=O)N(c3ccc(Cl)cc3)C(=O)N2Cc2ccco2)cc1 (stereo unspecified),109,112
CC1CCCCN1C(=O)CSc1c2c(nc3cc(Cl)ccc13)CCCC2 (stereo unspecified),105,109
Cc1ncc(CO)c2c1Oc1nc(-c3ccc(Cl)cc3)nc(SCC(=O)N3CCCCC3)c1C2,103,104
N#Cc1c[nH]n2c(NC3CCCC3)c(-c3cccc(Cl)c3)nc12,115,115

# The list goes on.
SMILES,PV pol inh,PV pol inh intensity
CCOC(=O)C1CCCN(S(=O)(=O)c2ccc(F)c(C(=O)Nc3ccc(F)c(F)c3)c2)C1 (stereo unspecified),96,101
COc1ccc(Cl)cc1CNCCSc1nnnn1C,106,113
Cc1ccc(S(=O)(=O)NCc2ccc(C(=O)NCCc3cccc(C)c3)cc2)cc1,108,114
O=C(c1cccs1)c1cn(CCOc2ccccc2Cl)c2ccccc12,105,107
CCN(CC)C(=O)C1CCN(S(=O)(=O)c2c(C)noc2/C=C/c2cccc(OC)c2)CC1,102,112
COc1cccc2c1Oc1ncccc1N(c1ccc(C(=O)NCc3ccccc3Cl)s1)C2,106,99
Cc1cccc(-c2noc(-c3cccnc3NCc3ccco3)n2)c1,107,109
Cc1ccc(NC(=O)CCc2c(C)nn(-c3ccc(N4CCCCC4)nn3)c2C)cc1F,113,103

# Brought forward from above: three entries, then new ones.
SMILES,PV pol inh,PV pol inh intensity
COc1cccc2c1Oc1ncccc1N(c1ccc(C(=O)NCc3ccccc3Cl)s1)C2,106,99
Cc1cccc(-c2noc(-c3cccnc3NCc3ccco3)n2)c1,107,109
Cc1ccc(NC(=O)CCc2c(C)nn(-c3ccc(N4CCCCC4)nn3)c2C)cc1F,113,103
COc1ccc(OC)c(CCNC(=O)c2cc3c(s2)-c2c(C)cccc2OC3)c1,104,106
CCc1cccc(NC(=O)CCc2nc3cccnc3n2-c2ccccc2)c1,107,112
CCCCNC(=O)c1cnn2c(C)c(Cc3c(C)cc(C)cc3C)c(C)nc12,94,89
O=C(Cc1ccc(Cl)cc1)Nc1ccc2oc(-c3ccccc3F)nc2c1,106,107
CCCCNS(=O)(=O)c1ccc2nc(-c3cccnc3)cc(C(=O)NC(C)C)c2c1,111,114
COc1ccc(Cn2c(C(=O)O)c(CNCCc3cc(OC)ccc3OC)c3ccc(C)cc32)cc1,113,109
Cc1ccc(-c2noc(-c3ccc(NCc4ccco4)c([N+](=O)[O-])c3)n2)cc1,113,114
COc1ccc(-c2nc(C(=O)Nc3cccc(C(C)=O)c3)nn2-c2ccc(Cl)cc2)cc1,114,107

# Further structures:
SMILES,PV pol inh,PV pol inh intensity
COc1ccc(-c2ccc(=O)n(CC(=O)Nc3ccc(C)cc3C)n2)cc1,101,105
CCOc1ccc(CNC(=O)c2cc3c(=O)n(C)c4ccccc4c3s2)cc1,109,109
Cc1ccc(C(C)C)c(OCC(=O)NCC2(N3CCOCC3)CCCCC2)c1,101,98
COc1ccc(OC)c(-c2nc3c(C#N)c[nH]n3c2NC2CCCCC2)c1,104,102
Cc1cc(=O)n2nc(N3CCC(C(=O)Nc4ccc(Br)c(C)c4)CC3)sc2n1,110,112
Cc1ccc(CCNC(=O)CCCn2c(=O)c3cccn3c3ccc(F)cc32)cc1,100,104
CCOc1ccc(NCc2cccn2-c2nnc(N3CCC(C(=O)NCCc4ccc(OC)c(OC)c4)CC3)s2)cc1,112,106
Cc1ccc(-n2nc3c(=O)n(CC(=O)NCCC(C)C)nc(C)c3c2C)cc1,111,113

# More records follow:
SMILES,PV pol inh,PV pol inh intensity
COc1ccc(-n2cc(-c3ccccc3)c3c(NCCc4ccc(OC)c(OC)c4)ncnc32)cc1,107,106
COc1cccc2c1cc1c(=O)n(CC(=O)NC3CC3)nc(C)n12,105,108
O=C(NC1CCCC1)c1ccc2c(=O)n(Cc3ccccc3)c(SCc3ccccc3F)nc2c1,102,107
COc1ccc2cc3cc(C(=O)N4CCN(c5cccc(C(F)(F)F)c5)CC4)sc3nc2c1,111,110
CCOc1cccc(C(=O)Nc2ccc(-c3nc4cc(C)cc(C)c4o3)cc2)c1,101,98
CC(CNC(=O)c1ccc2c(c1)nc1n2CCOC1)c1ccccc1 (stereo unspecified),113,113
COc1ccccc1CNc1nc(-c2ccco2)nn1S(C)(=O)=O,106,109
COc1ccc(-c2cn3nc(N4CCC(C(=O)NCc5cccc(Cl)c5)CC4)sc3n2)cc1,109,99

# (next part)
SMILES,PV pol inh,PV pol inh intensity
Cc1cccc(NC(=O)c2oc3c(c2C)-c2[nH]ncc2CC3)c1C,103,108
CC(C)COc1ccc(C(=O)NCC2OCCc3ccccc32)cc1 (stereo unspecified),109,111
CCc1ccc(NC(=O)Nc2cn(C)c(=O)c3ccccc23)cc1,70*,67*
CCCCCS(=O)(=O)c1oc(-c2cccs2)nc1S(=O)(=O)c1ccc(C)cc1,104,112
Cc1cccc(N2CCN(S(=O)(=O)c3ccc(-c4cnc(C5CC5)o4)cc3)CC2)c1C,103,104
CC(C)CC(C(=O)NCC1CCN(Cc2ccc(F)cc2)CC1)N1Cc2ccccc2C1=O (stereo unspecified),111,113
Cc1ccc(-n2nc3c(N4CCC(C(=O)N5CCC(C)CC5)CC4)nnc(C)c3c2C)cc1,102,96
COc1ccc(-c2cn3cccnc3n2)cc1NC(=O)c1ccccc1C(F)(F)F,105,103

# Continued.
SMILES,PV pol inh,PV pol inh intensity
COc1ccc(NC(=O)CCc2nc(C3=CCN(Cc4cccc(C)c4)CC3)no2)c(OC)c1,106,108
Cc1ccc(Cl)cc1NC(c1ccc(F)cc1)c1nnc(-c2ccccc2)o1 (stereo unspecified),99,95
CC(=O)Nc1ccc(S(=O)(=O)NC2(C(F)(F)F)NC(=O)N(c3ccc(Cl)cc3)C2=O)cc1 (stereo unspecified),106,106
COc1ccc(-c2cn3c(n2)sc2cc(C(=O)NCCCN4CCN(C)CC4)ccc23)cc1,95,77
COc1ccc(NC(=O)C(NS(=O)(=O)c2cccc3nsnc23)c2ccccc2)cc1 (stereo unspecified),109,111
CCOc1ccc(NC(=O)C2(c3cccs3)CCOCC2)cc1,103,100
Cc1ccc(Nc2ncnc3c2cnn3-c2ccc(C)cc2)cc1,103,98
CCn1cc(C(=O)NCCc2ccc(Cl)cc2)c(=O)c2cc(S(=O)(=O)N3CCC(C)CC3)ccc21,107,110

# (listing goes on)
SMILES,PV pol inh,PV pol inh intensity
COc1cc(Cl)c(C)cc1Nc1c2c(nc3ccccc13)CCC2,109,111
CCOC(=O)c1ccc(NC(=O)c2cnn3c(=O)c4c(n(CC)c23)CCN(Cc2ccc(OC)cc2)C4)cc1,109,105
COc1cc2cc(CNc3ccccc3)c(=O)n(CC(=O)Nc3ccc(C)c(Cl)c3)c2cc1OC,106,130
COc1ccc(C(=O)CSc2c(C(C)C)cnc3c2c(=O)n(C)c(=O)n3C)cc1,112,107
CC(C)c1ccc2oc(-c3ccc(NC(=O)c4cccc(Br)c4)cc3)nc2c1,104,105
O=C(CSc1nc2ccccc2n1Cc1ccc(F)cc1)N1CCN(c2ccc(F)cc2)CC1,109,118
Cc1cccc2c1-c1sc(C(=O)N(C)c3cccc(Cl)c3)cc1CO2,102,101
Cc1ccc(NC(=O)CN2C(=O)C(c3ccc(F)cc3)=NC23CCCCC3)c(C)c1,110,112

# The list goes on:
SMILES,PV pol inh,PV pol inh intensity
COc1ccc(N2CCN(C(=O)CCc3c(C)nc4cc(-c5ccc(Cl)cc5)nn4c3C)CC2)cc1,106,110
COc1ccc(OC)c(CCNc2nc3cc(OC)c(OC)cc3c3nc(-c4cccnc4)nn23)c1,102,104
Cc1ccc(NC(=O)CSc2cn(CC(=O)N3CCCC3)c3ccccc23)cc1Cl,121,116
COc1ccc(NC(=O)c2oc3ccccc3c2NC(=O)Cc2coc3ccc(C)cc23)cc1,119,119
O=C(c1[nH]c2ccccc2c1Sc1ccc(Cl)cc1)N1CCCCC1,105,113
Cc1ccc(-n2nc(C)c3c(C)c(CCC(=O)NCc4cccc(Cl)c4)c(C)nc32)cc1C,102,102
COc1ccc(CCNC(=O)CCCn2nc(C)c3sc4ccccc4c3c2=O)c(OC)c1,106,106
CCN(CC)S(=O)(=O)c1cccc(C(=O)Nc2sc3c(c2C#N)CCC(C)C3)c1 (stereo unspecified),109,106

# Later entries.
SMILES,PV pol inh,PV pol inh intensity
CCc1nn(CC(=O)N2CCN(c3cccc(OC)c3)CC2)c(=O)c2cc3occc3n12,110,111
Cc1cc(Br)ccc1NC(=O)c1sc2ncn(Cc3ccccc3Cl)c(=O)c2c1C,105,107
COc1ccc(C(CNC(=O)COc2ccc(Cl)c(C)c2)N2CCOCC2)cc1 (stereo unspecified),100,100
O=C(Nc1c(Cl)cccc1Cl)c1cc(-c2ccc3c(c2)OCO3)on1,107,113
Cn1c(=O)n(C)c2cc(N3CCOCC3)c(NC(=O)c3ccccc3Br)cc21,102,101
COc1cccc(C(=O)N2CCCCC2CCN2CCCCC2)c1 (stereo unspecified),112,108
CN(C)c1ccc(NC(=O)Cn2c(SCc3ccc(F)cc3)nc3cccnc32)cc1,106,108
CCOc1ccc(-c2c(C)nn3c(C)c(C(=O)NCc4cccc(OC)c4)cnc23)cc1OCC,101,107

# Next compounds follow:
SMILES,PV pol inh,PV pol inh intensity
COc1cccc(CNS(=O)(=O)c2c(C)nc3scc(C)n3c2=O)c1,104,97
CCN(CCCNC(=O)c1nn(-c2ccc(OC)cc2)c(=O)c2c1c1ccccc1n2C)c1cccc(C)c1,111,113
Cc1cccc(-c2nc3c4ccccc4nc(N4CCN(c5ccccc5F)CC4)n3n2)c1,101,105
O=[N+]([O-])c1cc(-c2nc(-c3ccccc3)no2)ccc1NCCc1ccccc1,113,113
Cc1cc(C)n2nc(CNC(=O)c3ccc(Cl)cc3)nc2n1,106,104
Cc1cc(NC(=O)C2CCC(CNS(=O)(=O)c3ccc(Br)s3)CC2)ccc1Br (stereo unspecified),109,110
COCCCn1c(-c2ccc(S(=O)(=O)N3CCOCC3)cc2)csc1=Nc1ccccc1,104,99
Cc1cccc(NC(=O)c2ccc3snnc3c2)c1,111,111

# (next part)
SMILES,PV pol inh,PV pol inh intensity
Cc1cc(Nc2cc(Cl)ccc2C)n2nc(Cc3ccccc3)nc2n1,105,111
CCOc1ccccc1NC(=O)CSc1ncc(S(=O)(=O)c2ccc(C(C)(C)C)cc2)c(=O)[nH]1,101,103
COc1ccccc1CNC(=O)C(=O)NCC(c1cccnc1)N1CCN(c2ccc(F)cc2)CC1 (stereo unspecified),106,105
Cc1oc(-c2ccc(Cl)cc2)nc1Cn1c(=O)cc(C)c2c(C)nn(-c3ccccc3)c21,113,116
COc1ccc(-c2nc(C)c(CCNC(=O)C(=O)Nc3cccc(F)c3)s2)cc1OC,107,110
Cc1cccc(-c2nc(C)c(CCNC(=O)C(=O)Nc3cccc(Cl)c3C)s2)c1,108,107
